Bioassay records as filed in PubChem BioAssay.
rRNA inh HTS = inhibitors of bacterial rRNA selective over humanized ribosomes | E. coli WT GFP vs humanized-ribosome RFP mutants, fluorescence, 24 h; hits give low values; DMSO median 0, no signal -100 | GFP signal change (wild-type ribosome), % (concentration not given with the values) | actives 1.6% (n = 350,000) | AID 720706;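 active = significant combined selectivity score with lowered wild-type GFP, culture density cut under 30%, mutant RFP and density less affected; inactive = any of these conditions unmet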; also: one replicate is shown; some compounds called inactive have numbers as strong as hits
MLL AF4-AF9 inh = inhibitors of human MLL-AF4/AF9 interaction; P42568; AlphaScreen, biotin-AF4 peptide binding to FLAG-AF9; inhibition, % at 10 µM; actives 0.47% (n = 350,000); AID 651704;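 active = every replicate reaching a set inhibition limit, whatever the replicate mean, cut at about 25% in these data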;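 also: 0% = plate neutral control median and 100% = total signal loss; the record names both 10 and 1 µM as test concentration; the first replicate is given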
Target sequence (P42568 whole entry, looked up): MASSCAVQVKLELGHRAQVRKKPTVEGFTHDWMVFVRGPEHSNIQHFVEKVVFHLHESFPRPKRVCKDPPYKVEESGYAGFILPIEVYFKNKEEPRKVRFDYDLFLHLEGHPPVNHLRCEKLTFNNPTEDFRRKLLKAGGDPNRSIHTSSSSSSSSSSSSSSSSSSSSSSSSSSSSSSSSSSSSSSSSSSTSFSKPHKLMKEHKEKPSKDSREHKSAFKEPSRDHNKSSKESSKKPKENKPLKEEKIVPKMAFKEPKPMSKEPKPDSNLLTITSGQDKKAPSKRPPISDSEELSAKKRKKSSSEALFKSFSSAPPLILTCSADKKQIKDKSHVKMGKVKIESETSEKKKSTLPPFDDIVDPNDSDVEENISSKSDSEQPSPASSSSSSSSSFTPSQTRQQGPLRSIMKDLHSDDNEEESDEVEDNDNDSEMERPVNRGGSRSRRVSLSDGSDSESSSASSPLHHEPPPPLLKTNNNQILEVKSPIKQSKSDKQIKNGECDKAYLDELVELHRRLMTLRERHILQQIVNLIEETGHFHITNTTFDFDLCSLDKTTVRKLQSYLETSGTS
FGF22 binding = FGF22 (human) thermal shift binding | Q9HCT0 | recombinant FGF22 thermal shift, SYPRO orange fluorescence; percent of sucrose octasulfate shift, DMSO zero | calls only at 9.99 µM | actives 1.5% (n = 340,000) | AID 651658;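 active = melting point raised past a set limit in the mean and every replicate; three in four hits are not shown here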
Target sequence (Q9HCT0 whole entry, looked up): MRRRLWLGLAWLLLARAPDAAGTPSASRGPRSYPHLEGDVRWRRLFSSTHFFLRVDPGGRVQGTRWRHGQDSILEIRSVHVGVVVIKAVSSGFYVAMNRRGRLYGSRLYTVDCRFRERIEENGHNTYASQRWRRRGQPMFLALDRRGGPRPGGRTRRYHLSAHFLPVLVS
rRNA inh HTS OD600 = also measured in rRNA inh HTS; calls as there; OD600 change, %; measured here: OD600 growth;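 optical density of the mix in the first replicate; 0 = DMSO median and -100 = no signal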
rRNA inh HTS RFP = further read-out of rRNA inh HTS, marked with its call; RFP signal change, %; measured here: RFP humanized mutant strains;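 first replicate; 0 = DMSO median and -100 = no signal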
Active calls of the source: *; i = inactive; + = active, no number; & = joins results of further samples; ! = not confirmed by another sample. An excerpt; the hit share may differ from the screen's.

SMILES	rRNA inh HTS	rRNA inh HTS OD600	rRNA inh HTS RFP	MLL AF4-AF9 inh	FGF22 binding
COC(=O)[C@]12CCCCC=C1N(CCC1=CCCCC1)C(=O)[C@H](CC(=O)NCCc1ccccc1OC)C2	12.4	4.8	5.7	0.8	i
O=C(Nc1ccc(F)cc1)N1C[C@@H]2[C@H](c3ccccc31)[C@H](CO)N2C(=O)Cc1cccnc1	-2.8	7.0	-3.9	-0.9	i
C[C@@H]1CN([C@@H](C)CO)C(=O)c2cc(NC(=O)NC3CCCCC3)ccc2O[C@H]1CN(C)C(=O)Nc1ccc2c(c1)OCO2	-4.8	-6.6	-1.8	-8.3	i
COc1cccc(-c2ccc3c(c2)O[C@@H](CN(C)C(=O)C2CCC2)[C@@H](C)CN([C@@H](C)CO)S3(=O)=O)c1	-16.2	-32.8	2.3	0.9	i
Cc1ccc(S(=O)(=O)Nc2cccc3c2O[C@H](CN(C)C(=O)NC(C)C)[C@H](C)CN([C@H](C)CO)C3=O)cc1	2.1	5.7	2.0	1.6	i
COc1ccc(NC(=O)N(C)C[C@H]2Oc3c(NC(=O)c4cc(C)nn4C)cccc3C(=O)N([C@H](C)CO)C[C@H]2C)cc1	1.0	13.8	-0.9	8.3	i
CN1C(=O)c2cc(NC(=O)c3ccc(F)cc3)ccc2OC[C@@H]2O[C@@H](CC(=O)N3CCOCC3)CC[C@H]21	-0.5	3.1	0.3	-0.2	i
CCCCNC(=O)C[C@H]1C[C@@]2(C(=O)OC)C(=C[C@H](C(C)C)O[C@@H]2C2CC2)N(Cc2ccccc2)C1=O	12.3	13.9	2.7	-3.1	i
O=C(C[C@@H]1C=C[C@H](NS(=O)(=O)c2ccc(F)cc2)[C@@H](CO)O1)N1CCC(Cc2ccccc2)CC1	-1.8	-10.7	-4.0	0.8	i
CCC(=O)Nc1ccc2c(c1)C(=O)N(C)[C@H]1CC[C@@H](CC(=O)NCCc3ccncc3)O[C@@H]1CO2	3.5	10.1	-1.4	-0.3	i
CCCNC(=O)N1C[C@@H](O)COC[C@@H]2O[C@H](CC(=O)NCCCN3CCOCC3)CC[C@H]21	0.3	4.4	0.4	-1.4	i
Cc1ccc(S(=O)(=O)Nc2ccc3c(c2)C(=O)N([C@H](C)CO)C[C@H](C)[C@@H](CN(C)S(=O)(=O)c2ccc(Cl)cc2)O3)cc1	1.4	-8.8	0.7	-0.1	i
CCOC(=O)C(=O)NCC1CCCN1S(=O)(=O)c1cccs1 (centres undefined)	4.9	7.4	1.7	3.1	i
C[C@@H]1CN([C@@H](C)CO)C(=O)c2cc(C3=CCCCC3)cnc2O[C@H]1CN(C)C(=O)C1CCOCC1	4.5	6.0	-2.2	-0.9	i
Cc1ccc(S(=O)(=O)N(C)C[C@H]2Oc3ccc(NS(=O)(=O)c4c(C)noc4C)cc3C(=O)N([C@@H](C)CO)C[C@H]2C)cc1	1.0	1.4	1.3	-1.6	i
C[C@H]1CN([C@@H](C)CO)C(=O)Cc2cc(NC(=O)CCCCCC(=O)Nc3ccccc3N)ccc2O[C@@H]1CN(C)Cc1ccncc1	-2.3	2.4	1.7	1.5	i
O=C(N[C@H]1CC[C@@H](CCNC(=O)c2ccccc2F)O[C@H]1CO)c1cnccn1	1.6	-5.0	-0.3	0.7	i
C[C@@H]1CN([C@H](C)CO)C(=O)c2cc(C#C[C@@H](C)O)cnc2O[C@H]1CN(C)Cc1cccc(F)c1	6.0	13.5	-1.6	-1.3	i
C[C@H]1CN([C@@H](C)CO)C(=O)c2cc(C#Cc3ccccc3F)cnc2O[C@@H]1CN(C)C(=O)C1CCOCC1	-0.8	-3.1	-0.1	-1.4	i
COc1cccc(S(=O)(=O)N[C@H]2C=C[C@H](CC(=O)NCc3ccc(Cl)cc3)O[C@H]2CO)c1	-5.0	-3.3	-1.9	-4.5	i
O=C(Nc1ccncc1)c1cc(C2CCCCN2C(=O)CCc2ccccc2)on1 (centres undefined)	-6.1	-13.7	1.6	-2.7	i
CCNC(=O)[C@H]1[C@H](CO)[C@H]2Cn3c(ccc(-c4ccccc4OC)c3=O)[C@H]2N1CC	-0.2	2.3	1.1	-5.8	i
CCC(=O)N1[C@H](CO)[C@@H](c2ccccc2)C12CN(C(=O)Nc1cccc(OC)c1)C2	-3.5	-2.0	-2.9	-1.5	i
C[C@@H]1CN([C@@H](C)CO)C(=O)Cc2cc(NC(=O)Cc3ccccc3)ccc2O[C@H]1CN(C)Cc1ccncc1	-1.6	6.7	2.0	1.3	i
CN(C)C(=O)C[C@@H]1CC[C@@H]2[C@H](COc3ccc(NS(=O)(=O)c4cccc(F)c4)cc3C(=O)N2C)O1	2.0	5.1	-1.6	-1.1	i
(more compounds)
SMILES	rRNA inh HTS	rRNA inh HTS OD600	rRNA inh HTS RFP	MLL AF4-AF9 inh	FGF22 binding
C/C=C/c1cnc2c(c1)C(=O)N([C@@H](C)CO)C[C@@H](C)[C@H](CN(C)Cc1cncnc1)O2	6.4	14.5	-0.8	-15.8	i
NC(=O)c1cccc(-c2ccnc3c2CC(C(=O)NCc2ccco2)O3)c1 (centres undefined)	11.1	13.2	4.5	-2.5	i
N#C[C@H]1[C@@H](c2ccc(C#CC3(O)CCCC3)cc2)[C@@H](CO)N1C(=O)C1CCCCC1	-4.0	1.4	-1.1	-1.2	i
CO[C@H]1CN(C)C(=O)c2ccc(NC(=O)Nc3cc(Cl)cc(Cl)c3)cc2OC[C@@H](C)NC[C@@H]1C	-15.1&-61.4	-27.2&-82.2	20.0&-12.6	6.0	i
C[C@@H]1CCCCO[C@@H](CN(C)C(=O)CCC(F)(F)F)[C@@H](C)CN([C@H](C)CO)C(=O)c2cc(NC(=O)Nc3ccc4c(c3)OCO4)ccc2O1	3.9	2.1	0.9	2.9	i
COc1cc2ccc(C(C)=NOC(C)=O)cc2cc1OC	-8.6	-3.4	3.2	-0.7	i
C[C@@H]1CN([C@H](C)CO)C(=O)c2cc(C#CC3(O)CCCC3)cnc2O[C@H]1CN(C)S(=O)(=O)c1cccc(F)c1	-2.8	-4.8	-0.3	-10.8	i
O=C(Nc1ccccc1F)N[C@H]1CC[C@H](CCNS(=O)(=O)c2ccc(F)cc2)O[C@H]1CO	-1.8	-5.0	-0.5	3.5	i
C[C@@H]1CCCCO[C@H](CN(C)C(=O)C2CCCCC2)[C@@H](C)CN([C@H](C)CO)C(=O)c2cc(NC(=O)Nc3cccc4ccccc34)ccc2O1	-1.2	-0.4	-1.0	-5.4	+
C[C@@H]1CN([C@@H](C)CO)C(=O)Cc2cc(NC(=O)CCC(F)(F)F)ccc2O[C@@H]1CN(C)Cc1ccc(C(=O)Nc2ccccc2N)cc1	-3.9	-7.7	-0.7	2.4	i
C[C@@H]1CN([C@@H](C)CO)C(=O)Cc2cc(NC(=O)Nc3cccc4ccccc34)ccc2O[C@@H]1CN(C)Cc1ccc(-c2ccccc2)cc1	1.0	-7.0	0.9	-18.2	i
O=C1c2ccccc2C(c2nnnn2Cc2ccccc2)N1Cc1cccc(F)c1 (centres undefined)	-23.1*!	-14.1*!	-2.1*!	-1.2&0.3	i
O=C(C[C@H]1C[C@@H]2c3cc(NC(=O)Nc4ccc(C(F)(F)F)cc4)ccc3O[C@@H]2[C@@H](CO)O1)NCc1cc(F)ccc1F	-6.6	-25.0	8.9	-16.0	i
CC(C)(C)NCC(=Cc1ccccc1)C(=O)c1ccccc1	-3.6	5.8	-2.1	-1.1	i
COc1ccc(CNC(=O)c2ccc(-c3ccc(F)c(F)c3)c3ccoc23)cc1OC	-3.7	-19.1	1.8	4.0	i
Cc1cc(C)c2c(CN3CCN(c4ccccc4)CC3)cc(=O)oc2c1	19.0	20.4	-2.6	-3.3	i
C[C@H](CO)N1C[C@H](C)[C@@H](CN(C)Cc2ccc(-c3ccccc3)cc2)Oc2ccc(N(C)C)cc2C1=O	-0.6	-1.4	1.1	29.3*	i
C[C@@H]1CN([C@@H](C)CO)C(=O)c2cc(NC(=O)C3CCCCC3)ccc2O[C@@H]1CN(C)C(=O)NC1CCCCC1	1.4	3.5	1.0	-9.0	i
C/C=C/c1ccc2c(c1)O[C@@H](CN(C)Cc1cccnc1)[C@@H](C)CN([C@H](C)CO)S2(=O)=O	-11.4	-2.9	4.8	2.0	i
CC(=O)N1[C@H](CO)[C@@H](c2ccccc2)[C@@H]1CN(C(=O)c1cccc(F)c1)C(C)C	-0.3	9.4	0.3	-3.3	i
C[C@H]1CN([C@@H](C)CO)C(=O)c2cccc(NC(=O)Nc3ccc4c(c3)OCO4)c2O[C@@H]1CN(C)S(=O)(=O)c1cn(C)cn1	-0.7	2.9	-3.3	0.5	i
C[C@H]1CN([C@@H](C)CO)S(=O)(=O)c2ccc(Br)cc2O[C@@H]1CN(C)C(=O)CC1CC1	-3.3	-2.8	-1.3	-1.3	i
COc1ccc2c3c(n(C)c2c1)[C@H](CO)N(C(=O)Cc1ccccc1)CC31CN(C(=O)Cc2ccccc2)C1	-2.9	-15.1	11.2	0.6	i
O=C(C[C@@H]1CC[C@H](NS(=O)(=O)c2cccc(F)c2)[C@H](CO)O1)NCc1ccc2c(c1)OCO2	-4.2	-6.5	-0.9	0.4	i
CC1(C(=O)NS(=O)(=O)c2cccc(C#N)c2)CCN1C(=O)C1(c2ccc(Cl)cc2)CCC1 (centres undefined)	-15.2*	1.8*	3.2*	-2.0	i

Another view of part of the listing above.
Sequence of screens – rRNA inh HTS | rRNA inh HTS OD600 | rRNA inh HTS RFP | MLL AF4-AF9 inh | FGF22 binding
C/C=C/c1ccc2c(c1)O[C@@H](CN(C)Cc1cccnc1)[C@@H](C)CN([C@H](C)CO)S2(=O)=O
    -11.4 | -2.9 | 4.8 | 2.0 | i
CC(=O)N1[C@H](CO)[C@@H](c2ccccc2)[C@@H]1CN(C(=O)c1cccc(F)c1)C(C)C
    -0.3 | 9.4 | 0.3 | -3.3 | i
C[C@H]1CN([C@@H](C)CO)C(=O)c2cccc(NC(=O)Nc3ccc4c(c3)OCO4)c2O[C@@H]1CN(C)S(=O)(=O)c1cn(C)cn1
    -0.7 | 2.9 | -3.3 | 0.5 | i

Additional records:
SMILES	rRNA inh HTS	rRNA inh HTS OD600	rRNA inh HTS RFP	MLL AF4-AF9 inh	FGF22 binding
CC(C)NC(=O)C1(C)CCN1CCC(=O)c1ccccc1 (centres undefined)	12.9	23.4	0.4	-4.3	i
C[C@@H]1CN([C@H](C)CO)C(=O)c2cccc(NC(=O)NC3CCCCC3)c2O[C@@H]1CN(C)C(=O)Nc1ccc(F)cc1	0.6	9.2	-2.1	-1.9	i
C[C@@H]1CCCCO[C@H](CN(C)Cc2ccncc2)[C@@H](C)CN([C@@H](C)CO)C(=O)c2cc(NC(=O)c3ccccc3)ccc2O1	-3.3	-2.2	-2.4	-17.7	i
C/C=C/c1ccc([C@@H]2[C@H](CO)N(CCC(F)(F)F)C23CN(C(=O)CN(C)C)C3)cc1	4.8	5.4	0.4	4.0	i
COc1ccc(C#Cc2cnc3c(c2)C(=O)N([C@@H](C)CO)C[C@@H](C)[C@H](CN(C)C(=O)CN(C)C)O3)cc1	2.1	16.0	2.5	17.0	i
C[C@@H]1CN([C@@H](C)CO)C(=O)c2cc(NC(=O)Nc3cccc4ccccc34)ccc2O[C@@H](C)CCCCO[C@H]1CN(C)Cc1ccccc1	-5.2	1.2	-7.1	8.2	i
C[C@@H]1CN([C@H](C)CO)C(=O)c2cc(C#CC3(O)CCCC3)cnc2O[C@H]1CN(C)C(=O)Cc1ccncc1	5.0	5.1	-3.4	-1.2	i
Cc1ccc(-c2nc3cc(C)c(Br)c(C)n3c2CC2CCCCC2)cc1	19.0	10.2	-0.8	0.1	i
CO[C@H]1CN(C)C(=O)c2cc(NS(=O)(=O)c3ccc(C)cc3)ccc2OC[C@@H](C)NC[C@H]1C	2.1	-0.3	1.6	-1.6	i
O=C(C[C@@H]1CC[C@@H]2[C@H](COC[C@H](O)CN2C(=O)Nc2ccccc2)O1)NCCCN1CCOCC1	1.3	0.3	6.7	-2.8	i
CN1[C@@H]2c3cccc(=O)n3C[C@@H]2[C@@H](CO)[C@@H]1C(=O)NCCc1ccccc1	1.0	9.0	-1.7	2.1	i
COc1ccccc1S(=O)(=O)N[C@@H]1C=C[C@H](CC(=O)NCc2cccc(F)c2)O[C@H]1CO	-1.3	9.6	1.2	-1.5	i
COc1ccc(NC(=O)N2CCCCN3[C@H](CO)[C@@H](c4ccc(-c5ccccc5F)cc4)[C@H]3C2)cc1	-53.4	-73.6	-13.3	3.3	i
CN(C)C(=O)[C@@H]1[C@@H](CO)[C@@H]2Cn3c(cccc3=O)[C@@H]2N1C(=O)C1CCC1	2.8	1.5	-1.3	-0.4	i
